Screens as filed in PubChem.
EPAC2 ant val: Validation qHTS for antagonist of cAMP-regulated guanine nucleotide exchange factor 4 (EPAC2) | Rap guanine nucleotide exchange factor 4 (Homo sapiens), Q8WZA2 | hit rate 1.7% among 16,000 | EPAC2 Rap1B BODIPY-GDP exchange, fluorescence | Potency, µM (doses to about 112 µM), without a hit: top-dose activity, negative = inhibition, most hits filed as inhibitors; active = well fitted inhibition curve with a large enough effect; inconclusive = small, poorly fitted or top-dose-only effect; inactive = no such curve, though single readings can be large or run the other way;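 note: 100% = activation by cAMP agonist control; nearly all actives have a fitted effect of over 40% in size; the record reuses the description of the EPAC1 agonist screen; inactives centre near -10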
Target sequence (Q8WZA2 whole entry, looked up): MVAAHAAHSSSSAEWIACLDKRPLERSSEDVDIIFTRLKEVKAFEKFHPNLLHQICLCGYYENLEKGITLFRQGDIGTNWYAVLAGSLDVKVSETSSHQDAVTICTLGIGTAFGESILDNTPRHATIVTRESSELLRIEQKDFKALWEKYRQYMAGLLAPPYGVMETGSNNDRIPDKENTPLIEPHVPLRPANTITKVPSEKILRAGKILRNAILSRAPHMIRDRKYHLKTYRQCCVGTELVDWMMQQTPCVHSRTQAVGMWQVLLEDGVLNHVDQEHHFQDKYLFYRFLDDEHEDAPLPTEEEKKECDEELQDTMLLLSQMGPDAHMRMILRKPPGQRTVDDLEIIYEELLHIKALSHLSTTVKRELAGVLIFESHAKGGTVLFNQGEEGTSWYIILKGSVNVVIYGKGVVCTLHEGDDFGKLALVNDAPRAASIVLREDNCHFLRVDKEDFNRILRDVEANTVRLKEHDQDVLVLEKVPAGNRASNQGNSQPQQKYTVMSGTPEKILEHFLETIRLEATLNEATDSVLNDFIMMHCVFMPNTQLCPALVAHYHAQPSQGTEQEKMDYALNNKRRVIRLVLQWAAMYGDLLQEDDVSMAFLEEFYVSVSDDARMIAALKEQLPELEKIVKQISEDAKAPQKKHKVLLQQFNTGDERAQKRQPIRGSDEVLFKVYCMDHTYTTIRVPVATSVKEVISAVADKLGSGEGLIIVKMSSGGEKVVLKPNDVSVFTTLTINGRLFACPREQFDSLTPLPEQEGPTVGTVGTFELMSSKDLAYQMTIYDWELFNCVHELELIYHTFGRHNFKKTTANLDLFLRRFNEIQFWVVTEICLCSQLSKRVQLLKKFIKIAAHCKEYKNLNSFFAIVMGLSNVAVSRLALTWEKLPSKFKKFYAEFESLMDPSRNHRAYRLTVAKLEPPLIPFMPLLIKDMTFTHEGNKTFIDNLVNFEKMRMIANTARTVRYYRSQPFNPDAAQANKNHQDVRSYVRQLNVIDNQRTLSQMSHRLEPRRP
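Fluorescent exchange read-out: 100 nM EPAC2 with 250 nM RAP1B–BODIPY-GDP and 50 uM GDP; BODIPY-GDP release lowers fluorescence. Read at 480/540 nm every 5 min for 30 min at room temperature; normalized to 6.5 mM cAMP.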
Numbers without * were called inactive; ? = inconclusive; & = joins results of further samples; ! = a repeat was not active; [ ] = remark or other dose. Potency is the fitted concentration of half-maximal effect.

Start of the data: the first 15 records, to show the layout:
SMILES	EPAC2 ant val
COc1ccc(CN2[C@@H](CC(=O)O)c3cc(C(F)(F)F)ccc3S2(=O)=O)cc1	-10%
COCc1ccc(C(=O)N2CCOc3c(cc(-c4cc(C)c5cccc(OC)c5n4)cc3OC)C2)o1	-18%
COc1cc(-c2cnc3ccccc3c2)cc2c1OCCN(C(=O)CCC(=O)c1ccc(F)cc1)C2	9%
O=C(c1ccco1)N1CCC[C@@]2(CCN(c3ccncc3)C2)C1	-20%
C/C=C(\C)C(=O)O[C@H]1C[C@@]2(C)CCC(C(C)C)C2(O)CC[C@@]1(C)O (stereo not given in full)	11%
c1ccc2c(c1)sc[n+]2CCC1CCCCC1	2%
CSc1nc(C(=O)NCc2nc(-c3cccc(NC(=O)c4ccccn4)c3)oc2C)cs1	-22%
CC#CCC(C)[C@H](O)/C=C/[C@@H]1[C@H]2c3cccc(CCCC(=O)O)c3O[C@H]2C[C@H]1O (stereo not given in full)	-16%
O=c1c(CCc2ccccc2)nc2cnc(N3CCNCC3)nc2n1CCc1ccccc1	-11%
Cc1ncsc1CCC(=O)N1CCCC(c2nc(-c3ccncc3)ncc2-c2ccccc2)C1 (stereo not given)	-18%
CCNc1ncc2nc(-c3ccc(Cl)cc3)c(=O)n(C[C@H]3CCCO3)c2n1	4%
CCC(O)c1ccccc1 (stereo not given)	-1%
COc1ccccc1-c1nc(NC2CC2)c2ccccc2n1	-20%
O=C(NCC1CCC2(CCN(Cc3ccccc3O)CC2)O1)C1CCCO1 (stereo not given)	-16%
CS(=O)(=O)N1CCC2(CCCN(c3cccc(-c4ccccc4)c3)C2)CC1	-22%

Main list (from the top)
SMILES	EPAC2 ant val
COc1ccc(CN2[C@@H](CC(=O)O)c3cc(C(F)(F)F)ccc3S2(=O)=O)cc1	-10%
COCc1ccc(C(=O)N2CCOc3c(cc(-c4cc(C)c5cccc(OC)c5n4)cc3OC)C2)o1	-18%
COc1cc(-c2cnc3ccccc3c2)cc2c1OCCN(C(=O)CCC(=O)c1ccc(F)cc1)C2	9%
O=C(c1ccco1)N1CCC[C@@]2(CCN(c3ccncc3)C2)C1	-20%
C/C=C(\C)C(=O)O[C@H]1C[C@@]2(C)CCC(C(C)C)C2(O)CC[C@@]1(C)O (stereo not given in full)	11%
c1ccc2c(c1)sc[n+]2CCC1CCCCC1	2%
CSc1nc(C(=O)NCc2nc(-c3cccc(NC(=O)c4ccccn4)c3)oc2C)cs1	-22%
CC#CCC(C)[C@H](O)/C=C/[C@@H]1[C@H]2c3cccc(CCCC(=O)O)c3O[C@H]2C[C@H]1O (stereo not given in full)	-16%
O=c1c(CCc2ccccc2)nc2cnc(N3CCNCC3)nc2n1CCc1ccccc1	-11%
Cc1ncsc1CCC(=O)N1CCCC(c2nc(-c3ccncc3)ncc2-c2ccccc2)C1 (stereo not given)	-18%
CCNc1ncc2nc(-c3ccc(Cl)cc3)c(=O)n(C[C@H]3CCCO3)c2n1	4%
CCC(O)c1ccccc1 (stereo not given)	-1%
COc1ccccc1-c1nc(NC2CC2)c2ccccc2n1	-20%
O=C(NCC1CCC2(CCN(Cc3ccccc3O)CC2)O1)C1CCCO1 (stereo not given)	-16%
CS(=O)(=O)N1CCC2(CCCN(c3cccc(-c4ccccc4)c3)C2)CC1	-22%
O=C1NC(CC(=O)N2CCC(n3c(C4CCC4)nc4cccnc43)CC2)c2ccccc21 (stereo not given)	-1%
COCC(=O)N1CCC2(CC1)CN(C(=O)Nc1ccccc1)C2	-12%
COc1cccc(CNc2ccc3nc(-c4ccc(N)cc4)c(OC)n3n2)c1	?
COc1cccc(-c2ccc3ncnc(N(C)C)c3c2)c1	-43%
COc1ccccc1CNc1ccnc(-c2ccccc2CN(C)C)n1	-21%
CC(C)(C)NC(=O)[C@@H]1C[C@@H]2CCCC[C@@H]2CN1C[C@@H](O)[C@H](Cc1ccccc1)NC(=O)[C@H](CC(N)=O)NC(=O)c1ccc2ccccc2n1	?
COc1cc(NS(C)(=O)=O)ccc1Cc1c2ccccc2nc2ccccc12	-15%
CCOC(=O)N1CCN(Cc2ccc3c(c2)CN(C(=O)c2ccc4ncccc4c2)CCO3)CC1	-11%
COC(=O)N1CCC2(CC1)CCN(c1ccccn1)CC2	-17%
CN1CCN(c2c(F)cc3c(=O)c(C(=O)O)cn(CCF)c3c2F)CC1	-2%
COCCn1c(=O)c(C)nc2cnc(OC)nc21	-5%
COCCN1CCN(C(=O)c2cnn(-c3nccc(-c4ccco4)n3)c2C2CC2)CC1	2%
Cc1c(C(=O)NN2CCOCC2)nn(-c2ccc(Cl)cc2Cl)c1-c1ccc(I)cc1	-24%
NC(N)=NCCNS(=O)(=O)c1cccc2cnccc12	-27%
Cc1ccc(NC(=O)c2cccc(N(C)C)c2)cc1NC(=O)c1ccc(O)cc1	?
CC(=O)Oc1cc(C)c(OC(C)=O)c2ccccc12	-23%
CN1CCCC(CC2c3ccccc3Sc3ccccc32)C1 (stereo not given)	-7%[56.6 µM]
CC(CCC(=O)O)C1CCC2C3C(O)C[C@@H]4CC(O)CC[C@@]4(C)C3CC(O)[C@]12C (stereo not given in full)	-12%
COc1ccccc1CNc1ccnc(-c2cccc(C#N)c2)n1	?
Cc1ccnc2ccc(Br)cc12	-1%
COc1ccc(CNc2nc(-c3ccc4c(c3)OCO4)nc3ccccc23)c(OC)c1	-15%
O=c1c(-c2ccccc2)nc2cncnc2n1Cc1ccccc1	-33%
N#C/C(=C\c1ccc(O)c(O)c1)C(=O)c1ccc(O)c(O)c1	?
COc1cccc(Nc2ncc3nc(-c4cccs4)c(=O)n(-c4ccccc4)c3n2)c1	355%[activator]
COc1cc(CN2CCC3(CC2)CC3C(=O)Nc2ccc3sc(C)nc3c2)ccc1F (stereo not given)	-2%
CCCCCCCCCCCCCCCC(=O)C1=C(O)C(CO)OC1=O (stereo not given)	-16%[151 µM]
Oc1cc2c(cc1O)[C@H](c1ccccc1)CNCC2	-14%
N#Cc1ccc(CN2CC[C@@]3(CCCN(C(=O)c4cnccn4)C3)C2)cc1	-17%
O=C(NC1CC1)[C@@H]1C[C@H](Sc2nc3ccccc3[nH]2)CN1CC1CCCCC1	-4%
CN(C)CC/C=C1\c2ccccc2COc2ccccc21	-22%&-6%&-19%
O=C(Cn1cc2ccccc2n1)N1CCOc2ccc(C(O)C3CCCCC3)cc2C1 (stereo not given)	?
CS(=O)(=O)N1CCC2(CCN(c3cccc(-c4ccccc4)c3)CC2)CC1	?
Cc1c(C(=O)NCc2cccc(F)c2)sc2ncnc(NCC3CCCO3)c12 (stereo not given)	3%
COc1ccccc1-c1cc(=O)c2cc(O)ccc2o1	-20%
CCN(CC)CCCC(C)Nc1ccnc2cc(Cl)ccc12 (stereo not given)	-9%&-7%&3%
Nc1nc(Cl)nc2c1ncn2[C@@H]1O[C@H](COP(=O)(O)OP(=O)(O)OP(=O)(O)O)[C@@H](O)[C@H]1O	23%
Cn1c(=O)c2c(nc(/C=C/c3cccc(Cl)c3)n2C)n(C)c1=O	-11%&-3%
O=c1[nH]cnc2c1ncn2C1OC(CO)C(O)C1O (stereo not given)	-4%&-10%
COc1ccc(CN2CCCC(n3cc(C(=O)N4CCCCC4)nn3)C2)c(OC)c1 (stereo not given)	-8%
O=C(O)COc1ccc(C(=O)c2cccs2)c(Cl)c1Cl	-6%&7%
CC1CC[C@@]2(OC1)OC1CC3C4CC[C@@H]5CC(O)CC[C@@]5(C)C4CC[C@]3(C)C1C2C (stereo not given in full)	-3%
Cn1cccc1C(=O)N1CCC[C@@]2(CCN(C(=O)Nc3cccc(C#N)c3)C2)C1	-25%
CC(C(=O)O)c1ccc(C(=O)c2ccccc2)s1 (stereo not given)	-5%[56.6 µM]
COCC(=O)Nc1cc(C(=O)N2CCCCC2c2nccs2)c2c(c1)nc(-c1ccncc1)n2C (stereo not given)	-16%
CC(=O)N1CCC2(CC1)CN(c1ccccn1)C2	-35%
The list continues.
SMILES	EPAC2 ant val
CC(=O)Nc1ccc(SC[C@H](Cc2ccccc2)N2CC[C@@H](N)CCC2=O)cc1	-24%
COc1ccc2c(c1)c(CC(=O)O)c(C)n2C(=O)c1ccc(Cl)cc1	-17%&8%&-11%&-25%
CCc1nc2cc(C(=O)NC3CCS(=O)(=O)C3)cc(NC(=O)c3ccccc3OC)c2n1C (stereo not given)	-1%
COc1cc(/C=C(\C#N)C(=O)Nc2nnc(C(F)(F)F)s2)ccc1OCc1ccc(C(F)(F)F)cc1C(F)(F)F	-25%
CC(C)Nc1cccnc1N1CCN(C(=O)c2cc3cc(NS(C)(=O)=O)ccc3[nH]2)CC1	6%
COCCNc1ncnc2ccc(-c3ccccc3OC)cc12	-13%
CN1CCC[C@@H]1CCO[C@](C)(c1ccccc1)c1ccc(Cl)cc1	13%&-19%
O=C(O)Cc1cc(I)c(Oc2cc(I)c(O)c(I)c2)c(I)c1	0%
CC(C)C(NS(C)(=O)=O)c1nnc2n1CCN(Cc1ccc3cccnc3c1)CC2 (stereo not given)	-8%
COc1ccccc1-c1ccnc(-n2ncc(C(=O)NC3CCCN(Cc4ccccc4)C3)c2C)n1 (stereo not given)	-8%
CNC(C)CCC=C(C)C (stereo not given)	5%
COc1ccc(C2COc3c(ccc(O)c3OC)C2)c(OC)c1O (stereo not given)	-26%
Cc1oc(-c2ccccc2NC(=O)c2ccccc2)nc1CNC(=O)C1CC(=O)OC12CCCCC2 (stereo not given)	-31%
O=C(c1cccc(F)c1)N1CCC2(CC1)CN(c1ccc(-c3ccccc3)cc1)C2	-20%
CCCCCCCCCCCCC/C=C/[C@@H](O)[C@@H](N)CO	0%[11.4 µM]
Cc1noc(C)c1-c1cc(NCc2cccs2)ncn1	-23%
Cc1cccc(Nc2ccncc2S(=O)(=O)NC(=O)NC(C)C)c1	-6%[56.6 µM]
COc1ccc(Oc2ncc3nc(-c4cccs4)c(=O)n(Cc4cccs4)c3n2)cc1	-20%
COc1ccc(-n2c(=O)c(-c3cccs3)nc3cnc(N(C)C)nc32)cc1	5%
COc1ccc2c(c1)OC[C@H]1c3cc4c(cc3O[C@@H]21)OCO4	?
CCCCCCCCCCCCOCCCN	-14%
COc1cc(N)c(Cl)cc1C(=O)CCC1CCN(CCNS(C)(=O)=O)CC1	-2%&-14%
CCNc1ncc2nc(-c3cn(C)c4ccccc34)c(=O)n(CCC#N)c2n1	-4%
N#Cc1ccccc1-c1nc(NCCN2CCOCC2)c2ccccc2n1	-16%
CC(=O)Nc1ccccc1-c1nc(CNC(=O)c2cc(C)ccc2C)c(C)o1	?
C[C@@H]1CCC(=O)N(CC[C@H](N=[N+]=[N-])c2ccccc2)CC1	?
COc1cc(-c2ccc(N=Nc3ccc4c(S(=O)(=O)O)cc(S(=O)(=O)O)c(N)c4c3O)c(OC)c2)ccc1N=Nc1ccc2c(S(=O)(=O)O)cc(S(=O)(=O)O)c(N)c2c1O	28µM*!
Cn1c(C(c2cc3ccccc3n2C)c2cc3ccccc3n2C)cc2ccccc21	-2%
O=c1c(-c2cccc(Cl)c2)nc2cncnc2n1C1CC1	-16%
Cc1ccc2c(c1)c1c3n2CCNC3CCC1 (stereo not given)	-17%
CCNc1ncc2nc(-c3cc(F)cc(F)c3)c(=O)n(C3CC3)c2n1	-13%
Cc1ccc(-c2ccnc(-n3ncc(C(=O)NC[C@@H]4CCCN5CCCC[C@H]45)c3C3CC3)n2)o1	3%
C=CCCCCCCCCCCCC(O)CC(O)CO (stereo not given) (tested in a mixture with another compound)	40µM*
CC(N)=NCCCC[C@H](N)C(=O)O	?
OC[C@@H]1O[C@@H](n2cnc3c(NC4CCCC4)ncnc32)[C@H](O)[C@H]1O	-17%
COc1ccc(-n2c(=O)c(-c3cccc(C#N)c3)nc3cnc(N4CCNCC4)nc32)cc1	-3%
CC[C@@H](C)CCCCC(=O)N[C@@H](CCNCS(=O)(=O)O)C(=O)N[C@H](C(=O)N[C@@H](CCNCS(=O)(=O)O)C(=O)N[C@H]1CCNC(=O)[C@H]([C@@H](C)O)NC(=O)[C@H](CCNCS(=O)(=O)O)NC(=O)[C@H](CCNCS(=O)(=O)O)NC(=O)[C@H](CC(C)C)NC(=O)[C@@H](CC(C)C)NC(=O)[C@H](CCNCS(=O)(=O)O)NC1=O)[C@@H](C)O	-14%
CCCN1CCC(=O)N([C@H](CO)c2ccccc2)CC1	?
O=C1NC2CCCCN2C12CCN(CCCN1c3ccccc3CCc3ccc(Cl)cc31)CC2 (stereo not given)	1%
Cc1cc2c3c(cccc3n1)C(=O)c1ccccc1-2	7%
COCCNc1ncnc2ccc(-c3ccccc3C(F)(F)F)cc12	?
C=CC(C)(O)CCC=C(C)C (stereo not given)	-13%
CC(C)OC(=O)c1cc(C(=O)OC(C)C)cc([N+](=O)[O-])c1	2%[239 µM]
Nc1c(S(=O)(=O)O)cc(Nc2ccc(Nc3nc(Cl)nc(Nc4ccc(S(=O)(=O)O)cc4)n3)c(S(=O)(=O)O)c2)c2c1C(=O)c1ccccc1C2=O	79µM*
NCCC[C@H](N)CC(=O)N[C@H]1CNC(=O)[C@H]([C@H]2C[C@H](O)N=C(N)N2)NC(=O)C(=CNC(N)=O)NC(=O)[C@H](CO)NC(=O)[C@H](CO)NC1=O	-3%[29.6 µM]
COc1cc(=O)n2c(c1C(=O)N(C)Cc1ccsc1)CCN(Cc1cnn(C)c1C)CC2	?
COc1ncc2nc(-c3cccs3)c(=O)n(CCC#N)c2n1	-20%
COc1ccc(CN2CCCC(n3cc(C(=O)N4CCCCC4)nn3)C2)cc1OC (stereo not given)	-11%
NS(=O)(=O)Cc1noc2ccccc12	-3%
C[C@@]1(C2CCCC2)Cc2cc(OCC(=O)O)c(Cl)c(Cl)c2C1=O	?
Cc1ccc(CN2[C@H](C)[C@H](c3ccccc3)OCCS2(=O)=O)cc1	?

Not all compounds are listed; rates above refer to the full screens.
